Compound activity (PubChem BioAssay)
STK33 inh: inhibitors of human STK33 kinase; Q9BYT3; purified STK33, MBP phosphorylation, ADP-Glo luminescence; inhibition, % at 10 µM; 320,000 tested, 0.073% active; AID 2661;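 active means inhibition at or above 25%, using the most active replicate where run in duplicate; inactive means inhibition below 25%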
Target sequence (Q9BYT3 whole entry, looked up): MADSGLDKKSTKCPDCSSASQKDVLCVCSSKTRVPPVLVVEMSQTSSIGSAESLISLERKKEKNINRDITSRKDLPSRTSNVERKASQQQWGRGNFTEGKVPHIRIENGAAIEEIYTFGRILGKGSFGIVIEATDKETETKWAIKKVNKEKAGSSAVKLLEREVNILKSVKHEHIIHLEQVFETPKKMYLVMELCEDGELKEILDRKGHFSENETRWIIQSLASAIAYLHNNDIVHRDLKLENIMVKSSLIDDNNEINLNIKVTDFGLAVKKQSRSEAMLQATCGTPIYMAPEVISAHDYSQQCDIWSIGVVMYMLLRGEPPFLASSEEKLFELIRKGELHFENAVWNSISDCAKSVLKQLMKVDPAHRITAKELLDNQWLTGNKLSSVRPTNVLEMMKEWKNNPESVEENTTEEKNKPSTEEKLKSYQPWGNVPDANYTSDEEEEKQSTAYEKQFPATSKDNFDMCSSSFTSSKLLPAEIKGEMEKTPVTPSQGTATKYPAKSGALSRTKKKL
Starred values were filed as active, the others as inactive.

The first 3 entries, to show the layout:
SMILES	STK33 inh
CCOc1ccccc1CNC(=O)c1cn(C)c(=O)c2c1c1ccccc1n2C	-1.3
O=C(CCS(=O)(=O)c1cccc2nonc12)NCc1ccc(Cl)cc1	-0.4
O=C1CCCCN1CC(=O)N1CCCC(Nc2ccc(F)c(F)c2)C1 (configuration not stated)	-0.3

All compounds of this part, from the first entry:
SMILES	STK33 inh
CCOc1ccccc1CNC(=O)c1cn(C)c(=O)c2c1c1ccccc1n2C	-1.3
O=C(CCS(=O)(=O)c1cccc2nonc12)NCc1ccc(Cl)cc1	-0.4
O=C1CCCCN1CC(=O)N1CCCC(Nc2ccc(F)c(F)c2)C1 (configuration not stated)	-0.3
CCN(CC)S(=O)(=O)c1cccc(C(=O)NC(C(=O)NC2=NCCS2)C(C)C)c1 (configuration not stated)	-0.6
Cc1ccc(S(=O)(=O)N2CCC(N3CCC(C)CC3)CC2)cc1	-1.3
COc1ccc(Cc2nc3c4c(ncn3n2)Oc2ccc3ccccc3c2C4c2ccc(OC)c(OC)c2)cc1 (configuration not stated)	-1.8
Cn1c(=O)c2ccccc2n(CC(=O)NC2CCCC2)c1=O	-0.8
CCOC(=O)N1CCC(NC(=O)CCc2nc(-c3ccc(C)cc3)no2)CC1	0.3
Cc1cccc[n+]1CC(=O)c1ccc(Cl)cc1	0.2
COC(=O)C1=C(C)N(CCc2cc(OC)c(OC)c(OC)c2)C(=O)N[C@H]1c1cccs1	0.1

Copied from the list.
STK33 inh result of Cn1c(=O)c2ccccc2n(CC(=O)NC2CCCC2)c1=O is entered as -0.8
STK33 inh result of CCN(CC)S(=O)(=O)c1cccc(C(=O)NC(C(=O)NC2=NCCS2)C(C)C)c1 (configuration not stated) is entered as -0.6
STK33 inh result of Cc1ccc(S(=O)(=O)N2CCC(N3CCC(C)CC3)CC2)cc1 is entered as -1.3
STK33 inh result of Cc1cccc[n+]1CC(=O)c1ccc(Cl)cc1 is entered as 0.2
STK33 inh result of O=C(CCS(=O)(=O)c1cccc2nonc12)NCc1ccc(Cl)cc1 is entered as -0.4
STK33 inh result of O=C1CCCCN1CC(=O)N1CCCC(Nc2ccc(F)c(F)c2)C1 (configuration not stated) is entered as -0.3

Next part:
SMILES	STK33 inh
COc1ccc(CNC(=O)C2CSC(c3ccc(OC)cc3)N2C(C)=O)cc1 (configuration not stated)	-0.7
Cc1ccc(C(=O)Oc2coc(CSc3nnc(NC(=O)c4cccs4)s3)cc2=O)cc1C	0.8
CC1=CS(=O)(=O)CC1SC(=S)N(C)C1CCS(=O)(=O)C1 (configuration not stated)	1.7
CC1(C)CC2CC(C)(CN2C(=O)COC(=O)Cn2[nH]c(=O)c3ccccc3c2=O)C1 (configuration not stated)	1.6
Nc1nc(COc2ccc(F)cc2Cl)nc(N2CCCCC2)n1	-0.8
Cc1c(C(=O)N2CCOCC2)oc2ccc(S(=O)(=O)N3CCCC3)cc12	-6.4
Cc1cc(C)cc(-n2nnc(C(=O)NCc3ccc(Cl)cc3)c2N)c1	0.6
Cc1ccc(OC(=O)c2cc3ccccc3o2)cc1	0.0
Cc1ccccc1-n1nnnc1SCC(=O)Nc1ccc(S(=O)(=O)N2CCCC2)cc1	0.6
COc1ccc(-c2cc(C(=O)N3CCOCC3)c3ccccc3n2)cc1OC	-2.9
Cc1cc(=O)oc(C)c1C(=O)Nc1ccc(N(C)C)cc1	-0.1
CCOC(=O)c1c(C)nc(SC)c(C#N)c1-c1ccccc1	-0.1
CCN(CC)C(=O)CSc1nc2c(sc(=S)n2Cc2ccco2)c(=O)n1-c1ccccc1	-0.5
CCOc1ccccc1NC(=O)COC(=O)CSc1ccc(Cl)cc1	-0.3
COc1ccccc1NC(=O)CSc1ccc2nnc(-c3ccc(C)cc3)n2n1	6.3
COc1ccccc1OCC(=O)N/N=C/c1cccc2cccnc12	0.5
COC(=O)Cc1ccc(N(Cc2ccccc2F)S(=O)(=O)c2ccc(C)cc2)cc1	-0.7
CCOC(=O)CSC(=S)NC(=O)c1ccc(OC)cc1	4.4
CC(C)(C)NC(=O)C(c1ccncc1)N(C(=O)CNC(=O)c1ccco1)c1ccc(F)cc1 (configuration not stated)	-1.1
CSc1nc(NC(C)(C)C)nc(Oc2ccc(=O)n(C)n2)n1	-0.2
CCC(=O)Nc1ccc(C(=O)NNC(=O)COc2cc(C)ccc2C)cc1	-0.6
CC(C)(C)C(=O)O/N=C(\N)COc1cccc(Cl)c1	-0.6
Cc1ccc(C(=O)NC(=S)NNC(=O)COc2ccc([N+](=O)[O-])cc2)cc1	-0.9
CC(C)(C)NC(=O)c1cccc(NC(=O)c2ccco2)c1	-1.6
COc1ccc(CCNC(=O)/C=C/c2cc(OC)c(OC)c(OC)c2)cc1OC	1.1
Cc1nc(SCC(=O)NCc2ccccc2)c2oc3ccccc3c2n1	-0.6
c1ccc(Oc2cccc(OCCCCN3CCCC3)c2)cc1	-2.6
CSc1sc(C(=O)NC(=O)NCc2cccnc2)c(C)c1-c1ccon1	-1.9
COc1ccc(/C=C/c2c(-c3ccc(OC)cc3)oc3ccccc23)cc1	-0.2
CC(C)NC(=O)CN1CCC(O)(c2ccccc2)CC1	-2.2
COc1ccc(C(=O)Nc2ccc(C(=O)OCC(=O)c3ccccc3)cc2)cc1	1.1
Cc1ccc(C(C)C)c(OCC(O)CN2CC(C)OC(C)C2)c1 (configuration not stated)	-1.7
O=S(=O)(c1ccc2c(c1)OCCO2)N(Cc1ccc(F)cc1)Cc1nnc(-c2cccs2)o1	-2.6
O=C1CCc2cc(NS(=O)(=O)c3ccc([N+](=O)[O-])cc3)cc3c2N1CCC3	0.1
COCCNC(=O)C(c1ccc(F)cc1)N(C(=O)CCC(=O)Nc1nccs1)c1cccc(C)c1 (configuration not stated)	-0.4
Cc1c(OC(C)C(=O)O)ccc2c(-c3ccccc3)cc(=O)oc12 (configuration not stated)	-0.5
O=C(c1cccc2ccccc12)C1CCCN(C(=O)CCN2CCCO2)C1 (configuration not stated)	-1.5
CCCCCC(O)CCC(=O)NNC1=CC(=O)CC(C)(C)C1 (configuration not stated)	-1.5
CC(=O)N1CCc2cc(S(=O)(=O)NCC(=O)NCc3ccccc3Cl)ccc21	-4.2
CCOC(=O)c1cc(C#N)c(N2CCCCC2)nc1-c1ccccc1	1.1
Nc1nonc1-n1nnc(C(=O)N/N=C/c2ccc(F)cc2)c1-c1ccc2c(c1)OCO2	-1.7
CC(C)Oc1ccc(C(=O)Nc2ccc3c(c2)n(C)c(=O)n3C)cc1	-0.2
CCOc1ccc2c(c1)nc(SCC(=O)c1cccs1)n2C	-1.4
CCc1nnc(NC(=O)CSc2nnc(Cc3cccn3C)n2C)s1	-0.1
NS(=O)(=O)c1ccc(-c2ccc(/C=N/NC(=O)c3ccc([N+](=O)[O-])cc3)o2)cc1	-2.2
Cc1ccc(C)c(C(=O)CN2C(=O)c3ccccc3C2=O)c1	-2.2
CC1CCCC(C)N1CCCNC(=O)c1cc2c(=O)n(C)c3ccccc3c2n1C (configuration not stated)	0.8
Cc1ccccc1N1CCN(C2CCCN(C(=O)c3ccnn3C)C2)CC1 (configuration not stated)	-0.6
CN(C)C(=O)CN1C(=O)C2CC=C(Cl)CC2C1=O (configuration not stated)	-4.4
O=C(Nc1ccccc1)C1=C[C@H](C2CCCCC2)C[C@H](OCc2ccc(CO)cc2)O1	-2.1
(next part)
SMILES	STK33 inh
COc1ccc(-c2[nH]c(-c3ccccc3)nc2SCC(=O)NCc2ccco2)cc1OC	1.8
COc1ccc(N2Cc3cccc(C(=O)O)c3C2=O)cc1	-0.1
OCC1CCCN(C(=S)NCCc2ccccc2)C1 (configuration not stated)	-3.4
CCOC(=O)c1c(N2C(=O)C=CC2=O)sc(C)c1C	-0.5
O=C(Nc1ccccc1)c1ccc(-c2ccc([N+](=O)[O-])cc2)o1	0.4
CC(=O)N1CCN(C2c3cccc4cccc(c34)C2NS(=O)(=O)c2ccccc2)CC1 (configuration not stated)	-0.5
COc1ccc(/C=N/n2cncn2)cc1CSc1ccccn1	-0.2
CCOC(=O)CNC(=O)CSc1ncnc2c1nnn2-c1ccc(F)cc1	-0.9
CC(c1ccccc1)n1c(-c2ccc(Cl)cc2)n[nH]c1=S (configuration not stated)	-1.5
COC(=O)[C@@H]1C[C@H]2CC[C@H](O)C[C@H]2N1Cc1ccccc1OS(=O)(=O)c1ccc(C)cc1	-1.0
COc1cccc(NC(=O)N2CCN(S(C)(=O)=O)CC2)c1	-0.6
Cc1nn(CC(=O)NC(C)C)c(C)c1[N+](=O)[O-]	-0.5
COc1ccc(-c2cc3nc4c(c(N5CCC6(CC5)OCCO6)n3n2)CCC4)cc1	-0.7
COc1cc(C)ccc1NC(=O)c1ccc(S(=O)(=O)N2CCOCC2)cc1	-1.0
O=C1CSC(=S)N1/N=C/c1cccnc1	1.6
COc1ccccc1CN1CC(C(=O)N2CCC(OC)CC2)CCC1=O (configuration not stated)	0.4
CSC1=NCCN1C(=O)c1ccc(S(=O)(=O)N(C)C)cc1	-0.7
O=C(c1cccc(F)c1)N1CCN(S(=O)(=O)c2ccc(C(F)(F)F)cc2)CC1	-0.7
O=C(c1nn(Cc2ccccc2)c(=O)c2ccccc12)N1CCN(c2ccccn2)CC1	-0.9
Cc1[nH]n2c(=O)cc(Cc3ccccc3)nc2c1C#N	-0.6

The list goes on (six carried over from the part before).
SMILES	STK33 inh
O=C1CSC(=S)N1/N=C/c1cccnc1	1.6
COc1ccccc1CN1CC(C(=O)N2CCC(OC)CC2)CCC1=O (configuration not stated)	0.4
CSC1=NCCN1C(=O)c1ccc(S(=O)(=O)N(C)C)cc1	-0.7
O=C(c1cccc(F)c1)N1CCN(S(=O)(=O)c2ccc(C(F)(F)F)cc2)CC1	-0.7
O=C(c1nn(Cc2ccccc2)c(=O)c2ccccc12)N1CCN(c2ccccn2)CC1	-0.9
Cc1[nH]n2c(=O)cc(Cc3ccccc3)nc2c1C#N	-0.6
O=C(Nc1cccc(C(F)(F)F)c1)c1cnc2n(c1=O)CCS2	-1.2
COC(=O)c1cnn2c(C(F)(F)F)cc(-c3ccc(F)cc3)nc12	-1.6
NCc1cc2c3c(c1)CCCN3CCC2	-1.2
C/C(=N\NC(=S)NCc1ccccc1)c1ccc(C)o1	-1.1
CCCCCn1c(C)c2c(OCC)cccc(=O)c2c1C	-0.5
C/C=C/COC(=O)c1[nH]c2c(c1C)C(=O)CC(c1ccco1)C2 (configuration not stated)	-4.6
CCOC(=O)c1ccc(N2C(=O)Cc3ccccc3C2=O)cc1	-0.3
O=C(NCc1ccc2c(c1)OCO2)c1ccc(Cl)s1	0.5
Oc1ccc(NCc2cccc(OCc3ccccc3)c2)cc1	1.9
CCOC(=O)c1cnn(-c2ccccc2)c1-n1cccc1C(=O)C(=O)Nc1ccccc1C(F)(F)F	-2.5
COc1ccc(OC)c(C(=O)COC(=O)c2ccccc2O)c1	0.2
OCC1(CCOc2ccccc2)CCN(Cc2ccc(OC(F)F)cc2)CC1	-0.3
c1ccc(-n2cc(CN3CCCC3)c(-c3ccc4c(c3)OCO4)n2)cc1	0.3
COCCNc1ccc(-c2nn(C)c(=O)c3ccccc23)cc1[N+](=O)[O-]	0.3
CCOc1cccc(N(C(=O)CCC(=O)Nc2cc(C)on2)C(C(=O)NC(C)(C)C)c2ccc(OC)cc2)c1 (configuration not stated)	-1.1
O=C1NC2(CCCCCC2)N=C1c1ccc(Br)cc1	-0.4
Cc1c(C(c2ccc([N+](=O)[O-])cc2)c2c(C)n(C)n(-c3ccccc3)c2=O)c(=O)n(-c2ccccc2)n1C	-2.6
CCOc1ccc2nc(NCCNC(=O)C3CC3)c(C)cc2c1	-2.3
CCc1c(O)nc(SCC(=O)Nc2ccc(OC)cc2)n(C2CCCCC2)c1=O	0.5
CCNc1nc(NC(C)C)nc(N2CC(=O)N(CC(=O)OCC)C2=N)n1	-2.6
O=C(N1CCCCC1)C12CC3CC(CC(C3)C1)C2	-2.1
CCOc1cc(-c2noc(-c3ccncc3)n2)cc(Br)c1OC	0.3
O=C(Nc1ccc(F)c(Cl)c1)C1CCN(S(=O)(=O)c2cccnc2)CC1	-0.3
O=C(Nc1nnc(C2CCCC2)s1)C1CCN(S(=O)(=O)c2ccc(Cl)cc2)CC1	-1.1
COc1cccc(CNn2cn[nH]c2=S)c1OCc1ccccc1	0.5
COC(=O)c1ccccc1OCCCN(C)C	-0.6
CC(C)c1csc(CN2CCN(Cc3ccccc3)C(CCO)C2)n1 (configuration not stated)	-0.1
Cc1cc(C(C)(C)C)cc(C)c1S(=O)(=O)N1CC(=O)Nc2ccccc21	1.0
Cc1cccc(NC(=O)COC(=O)c2ccc3c(=O)n4c(nc3c2)CCC4)c1	-1.8
O=C(c1ccccc1)N1CCCOC1c1ccccc1 (configuration not stated)	-0.7
COc1cccc(C2C(C(N)=O)=C(C)Nc3nc(CCCO)nn32)c1OC (configuration not stated)	-2.0
COc1ccc(OC)c(-n2nnnc2SCC(=O)N2CCN(C(=O)c3ccco3)CC2)c1	-0.2
O=C(CSc1nc2ccccc2c(=O)[nH]1)Nc1cccc([N+](=O)[O-])c1	0.5
CC(=O)N(CCS(=O)(=O)c1ccc(Cl)cc1)Cc1cccs1	-3.7
COc1ccccc1CCNC(=O)C(=O)NCC1OCCN1S(=O)(=O)c1ccc(F)cc1 (configuration not stated)	-1.2
Nc1ccc(-c2ccc(N)c(C(=O)O)c2)cc1C(=O)O	0.6
O=C(NCc1ccco1)c1ccccc1-c1ccc(C(F)(F)F)cc1	0.1
COc1ccccc1-c1nnc(NC(=O)CCS(=O)(=O)c2ccccc2)o1	-0.6
CCn1c(SCC(=O)NC2CCCCC2)nnc1-c1cccnc1	2.2
COCc1cc(C)nc(NC2CC(C)(C)NC(C)(C)C2)c1C#N	1.0
COc1ccc(N2CCN(C(=O)Cc3nn(C)c(=O)c4ccccc34)CC2)cc1	-1.2
O=C(Nc1nnc(COc2ccccc2)s1)c1ccco1	0.2
CC/C(=N\NC(=O)CNC(=O)/C=C/c1ccc(OC)cc1)c1ccccc1	-2.1
O=C(O)C1Nc2c(C(F)(F)F)ccc(Cl)c2C2C=CCC12 (configuration not stated)	1.1
NC(=O)COC(=O)/C=C/c1ccc(S(=O)(=O)N2CCCCCC2)cc1	0.4
CCc1ccc(-c2ccc(SCC(=O)NCC3CCCO3)nn2)cc1 (configuration not stated)	-1.0
Cc1cc(C(=O)Nc2c(C)n(C)n(-c3ccccc3)c2=O)c2ccccc2n1	0.0
COc1cc(/C=C(\C#N)C(=O)NCC2CCCO2)ccc1OCC(N)=O (configuration not stated)	0.8

An excerpt, and most or all hits are left out here.
